Screens deposited in PubChem by Johns Hopkins Ion Channel Center.
KCNQ2 enhance – potentiators of rat KCNQ2 potassium channel | AID 2239 | CHO-K1 KCNQ2, FluxOR thallium flux fluorescence; hits give high values | O88943 | B-score at 10 µM | 0.54% of 310,000 active;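 active = fluorescence ratio B-score at least 3 SD of library B-scores, with initial fluorescence B-score within 3 SD, cut at about 5.3 in these data; same plate scores as AID 2156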;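 also: B-score of peak minus minimum over baseline fluorescence ratio after K+ and Tl+ stimulus; positive B-score means potentiation of KCNQ2 with more thallium influx and brighter signal; only the inactives scoring about 0 or higher are listed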
Target sequence (O88943 whole entry, looked up): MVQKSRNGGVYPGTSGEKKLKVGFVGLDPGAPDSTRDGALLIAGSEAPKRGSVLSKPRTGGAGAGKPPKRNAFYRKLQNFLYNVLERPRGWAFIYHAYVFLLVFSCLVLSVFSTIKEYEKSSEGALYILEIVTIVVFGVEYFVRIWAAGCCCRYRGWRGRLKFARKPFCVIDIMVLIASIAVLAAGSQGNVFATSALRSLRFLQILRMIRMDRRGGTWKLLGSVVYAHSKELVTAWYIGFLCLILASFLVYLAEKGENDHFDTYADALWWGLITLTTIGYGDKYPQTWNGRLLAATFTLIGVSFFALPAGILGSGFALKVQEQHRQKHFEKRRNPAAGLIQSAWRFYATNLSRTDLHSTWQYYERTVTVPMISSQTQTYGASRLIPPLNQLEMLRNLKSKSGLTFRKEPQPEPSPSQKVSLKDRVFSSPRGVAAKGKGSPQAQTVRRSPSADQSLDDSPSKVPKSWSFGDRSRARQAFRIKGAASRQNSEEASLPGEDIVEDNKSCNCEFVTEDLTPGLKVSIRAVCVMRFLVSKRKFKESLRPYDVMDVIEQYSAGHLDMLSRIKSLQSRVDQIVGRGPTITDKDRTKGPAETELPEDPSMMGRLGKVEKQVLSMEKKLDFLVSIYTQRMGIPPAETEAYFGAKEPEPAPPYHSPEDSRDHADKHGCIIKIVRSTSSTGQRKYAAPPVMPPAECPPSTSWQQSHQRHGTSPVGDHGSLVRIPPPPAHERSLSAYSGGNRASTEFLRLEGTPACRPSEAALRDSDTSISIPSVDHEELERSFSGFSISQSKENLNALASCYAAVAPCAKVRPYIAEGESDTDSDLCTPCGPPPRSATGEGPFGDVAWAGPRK
KCNQ2 enhance baseline – second read-out of KCNQ2 enhance, no call of its own (marks repeat the call); B-score; compound at 10 µM; measured here: initial fluorescence intensity artifact check;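 brightness before thallium and not channel activity; 0 = typical well and far values either way flag optical interference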
* = called active by the depositor. A portion of the library, so the mix of outcomes need not match the whole.

Fields: KCNQ2 enhance | KCNQ2 enhance baseline
[1] COCCNC(=O)C(NC(=O)C1CCC(C)CC1)C(C)C (stereo unspecified)
  0.51 | 0.27
[2] O=C(CSc1nnc(NC(=O)c2cccc(Br)c2)s1)NCC1CCCO1 (stereo unspecified)
  0.23 | -2.2
[3] Cn1c(N)c(N2CCCCC2)c(=O)n(CC(=O)Nc2ccc(Cl)c(Cl)c2)c1=O
  17* | -0.08*
[4] O=C(CNC(=O)c1cccs1)c1ccc(Br)cc1
  0.01 | -1
[5] COc1ccccc1OCCOc1ccc(/C=C2\C(=N)N3N=C(C)SC3=NC2=O)cc1
  0.69 | -0.01
[6] Nc1nnc(SCC(=O)NCCOc2ccccc2)s1
  0.6 | 2.2
[7] CCCNC(=O)Cn1cnc2sc(C(=O)N3CCCC(C(=O)OCC)C3)c(C)c2c1=O (stereo unspecified)
  1.2 | 0.02
[8] Brc1ccc(-c2nn3c(Cc4ccccc4)nnc3s2)o1
  0.76 | 0.55
[9] CCc1ccc(N(CC(=O)NCc2ccc(F)cc2)C(=O)c2csnn2)cc1
  0.31 | -0.45
[10] CCC(C)NC(=O)c1ccccc1NC(=O)CN(c1cc(C)ccc1OC)S(C)(=O)=O (stereo unspecified)
  1.4 | 2.2
[11] O=C(NCC1CCCO1)c1ccc2c(c1)S(=O)(=O)c1ccccc1C2=O (stereo unspecified)
  1.5 | 0.01
[12] CCOc1ccccc1/C=C/c1cc(C(=O)O)c2ccccc2n1
  0.18 | -0.59
[13] Cc1nn(Cc2c(Cl)cccc2Cl)c(C)c1NC(=O)/C=C/c1cnn(C)c1C
  0.5 | 0.94
[14] Cc1[nH]c2ccccc2c1/C=N/NC(=O)c1ccccc1
  0.28 | 0.03
[15] O=C(Nc1ccc(OC(F)(F)F)cc1)c1ccc2nc[nH]c2c1
  1.1 | -1.6
[16] CN(C)c1ccc(C(C(=O)NCC2CCCO2)N(Cc2ccccc2)C(=O)c2snc(C(N)=O)c2N)cc1 (stereo unspecified)
  0.54 | 1.8
[17] O=C(COC(=O)Cc1cccc(C(F)(F)F)c1)Nc1cccc2ccccc12
  0.15 | -0.27
[18] O=C(NCc1cccnc1)c1ccccc1[N+](=O)[O-]
  0.24 | 1.1
[19] CCOC(=O)c1c(NC(=O)c2cccs2)sc2c1CCCC2
  0.49 | 0.04
[20] Cc1ccc2cc(C#N)c(SCC(=O)Nc3ccc4sc(C)nc4c3)nc2c1
  0.35 | 0.71
[21] CCc1ccccc1Nc1nc(N)nc(CSc2nnnn2C)n1
  0.34 | 0.58
[22] COc1ccc2cc(C(=O)N3CCC(Cc4ccccc4)CC3)[nH]c2c1
  2.2 | -1.5
[23] Cc1ccc(C2C3=C(CCCC3=O)Nc3nc(SCC(=O)NCc4ccco4)[nH]c(=O)c32)cc1 (stereo unspecified)
  0.11 | 2.8
[24] O=C(CN1C(=O)/C(=C/c2ccccc2Cl)SC1=S)NC1C=CS(=O)(=O)C1 (stereo unspecified)
  0.22 | -1.1
[25] O=C(Nc1ccccc1C(=O)N1CCOCC1)C1CCC(=O)N1C1CCCC1 (stereo unspecified)
  0.6 | 0.79
[26] CCc1ccc(NC(=S)N(CCCN2CCOCC2)Cc2ccccn2)cc1
  0.47 | -0.29
[27] COc1cc2c(cc1OC)C(C(=O)NCCN(C)C)C(c1cccs1)N(C)C2=O (stereo unspecified)
  0.33 | 0.02
[28] O=C(Nc1ccccc1C(F)(F)F)N1CCN(c2ccc3nnc(-c4ccc(F)cc4)n3n2)CC1
  0.02 | -0.4
[29] CC(C)(C)c1ccc(C(=O)Nc2nnc(SCC(=O)NCC3CCCO3)s2)cc1 (stereo unspecified)
  0.97 | 1.2
[30] COc1cccc(-n2c(C)n[nH]c2=O)c1
  1.4 | 0.69

Remaining list, next part
Fields: KCNQ2 enhance | KCNQ2 enhance baseline
[31] COc1ccc(OCC(=O)N/N=C(/C)Cc2ccccc2)cc1
  2.1 | -3.7
[32] CCCCCOc1ccc(/C=c2\sc3nc(=O)c(-c4ccccc4)nn3c2=O)cc1OC
  0.48 | -1.5
[33] CCOC(=O)N1CCC(NC(=O)c2cc(C(=O)Nc3ccc(OC)c(OC)c3)ccc2CO)CC1
  1.7 | -0.01
[34] Cn1nccc1NC(=O)Nc1cccc([N+](=O)[O-])c1
  1.1 | -1.6
[35] COc1ccc(Cn2nnc3c(C)n[nH]c(=O)c32)cc1
  0.65 | 1.8
[36] O=C(CN1CCOCC1)N1c2ccccc2Sc2ccccc21
  1.1 | 0.71
[37] O=S(=O)(Nc1cccc(-n2cnnn2)c1)c1ccc(Cl)cc1
  1.4 | 0.7
[38] Nc1ccc2nc(CCc3ccccc3)[nH]c2c1
  0.89 | -0.75
[39] CCOC(=O)C1=C(N)n2c(s/c(=C\c3cccnc3)c2=O)=C(C(=O)OC)C1c1cccnc1 (stereo unspecified)
  1.1 | -0.12
[40] O=C(CSc1ccc2ccccc2c1)Nc1ncccn1
  2.6 | -0.52
[41] COc1ccc2oc(C(=O)OCC(=O)N(C)C3CCCCC3)c(C)c2c1
  0.8 | -0.65
[42] Cc1oc(-c2cccc(Cl)c2)nc1CN1CCC(C(=O)NC2CC2)CC1
  1.2 | -0.31
[43] N#Cc1c(C(F)(F)F)cc(=O)[nH]c1SCC(=O)O
  0.98 | -0.2
[44] Cc1ccccc1OCC(O)CN1CCN(CC(O)COc2ccccc2C)CC1 (stereo unspecified)
  1.2 | -1.3
[45] O=C(CSc1nnc(NC(=O)c2c(F)cccc2F)s1)NCc1ccccc1
  0.19 | -1.8
[46] COc1cc([N+](=O)[O-])ccc1NC(=S)NNC(=O)c1ccc2c(c1)OCO2
  4.9 | -2
[47] CCOc1cc(/C=N/NC(=O)c2cc(C3CC3)[nH]n2)ccc1O
  0.23 | -1.8
[48] O=C1NC(=O)C2C1C(c1cccs1)NN2Cc1ccccc1 (stereo unspecified)
  0.45 | 0.02
[49] O=C(NNc1nc2ccccc2nc1C(F)(F)F)c1ccccc1
  0.02 | -0.86
[50] CN(C)c1ccnc(-n2cccc2/C=N/OCc2ccccc2)c1C#N
  0.71 | 1.4
[51] O=C(Nc1ccc2nc(-c3ccccc3)[nH]c2c1)c1ccco1
  0.89 | 0.58
[52] CCOc1oc(-c2ccc(OC)cc2)nc1C(F)(F)F
  0.31 | 0.42
[53] CCN(CC1CCCO1)C(=O)C1CCN(C2CCN(Cc3ccccc3C)CC2)CC1 (stereo unspecified)
  2.6 | -2.9
[54] C=CCNC(=O)C1CCN(c2cnccn2)CC1
  1.1 | 0.95
[55] Cc1ccc(C(C)C)c(OCCCCN2CCNCC2)c1
  0.18 | 1.4
[56] C=CCn1c(SCC(=O)Nc2ncc(Cc3ccc(C)c(Cl)c3)s2)nnc1-c1ccncc1
  0.56 | 0.04
[57] C/C=C\C=C/C(=O)Nc1cccc(C2=NOC3(C2)C[C@@H](C(N)=O)N(C(=O)/C=C/CC)C3)c1 (stereo partly specified)
  2.3 | -0.4
[58] CCc1cccc(NC(=O)c2ccc(Cn3c(=O)[nH]c4ccsc4c3=O)cc2)c1
  1.4 | -1.4
[59] CCN(CC)CCNC(=O)C1CCC(=O)N1CCc1ccccc1 (stereo unspecified)
  1.5 | 0.39
[60] COc1ccc(-n2c(=S)[nH]c3cc(C(=O)Nc4ccc(OC)c(OC)c4)ccc3c2=O)cc1
  0.6 | 0.85

Carrying on.
Fields: KCNQ2 enhance | KCNQ2 enhance baseline
[61] O=C(NNC(=O)c1cnccn1)c1cccc([N+](=O)[O-])c1
  0.66 | 0.91
[62] O=C(CSc1nnnn1-c1cccnc1)Nc1ccc(OCc2ccccc2)cc1
  0.1 | -0.87
[63] CCc1ccc(NC(=O)CS(=O)CC(=O)Nc2ccc(F)cc2F)cc1 (stereo unspecified)
  0.77 | 1
[64] CCC(C)c1ccc(NC(=O)C2CC2)cc1 (stereo unspecified)
  2.3 | 1.3
[65] CN(C)c1ccc(C(=O)NNC(=O)c2ccc(Cl)cc2)cc1
  0.71 | 1.6
[66] O=C(NCc1ccccc1F)c1cccc(S(=O)(=O)NCc2ccccc2)c1
  0.27 | -0.37
[67] CC(OC(=O)c1cccc(-n2cnnn2)c1)C(=O)Nc1ccc(F)cc1Cl (stereo unspecified)
  1.6 | -1.7
[68] COc1ccc(CCNC(=O)CN(C2CCCCC2)S(C)(=O)=O)cc1
  0.26 | -0.3
[69] COc1ccc(NC(=O)Nc2cc(C)cc(C)c2)cn1
  0.55 | 2.2
[70] O=c1c2ccccc2[nH]c(=S)n1CCc1ccccc1
  7.2* | 0.85*
[71] COc1cccc(N2CCN(C(=O)c3ccc4nc[nH]c4c3)CC2)c1
  0.16 | -3.2
[72] O=C(Nc1ccc(F)cc1)c1ccc(S(=O)(=O)NCC2CCCO2)cc1 (stereo unspecified)
  0.01 | 1.1
[73] Cn1c(=O)c2c(nc(CN3CCN(C(=O)c4ccco4)CC3)n2CCCO)n(C)c1=O
  0.56 | 0.21
[74] CCN(CC)S(=O)(=O)c1ccc(NC(=O)CCNC(=O)c2ccccc2)cc1
  1.8 | -1.5
[75] CCOc1cc(C(C#N)N2CCCCC2)ccc1OC (stereo unspecified)
  0.67 | -1.4
[76] N#Cc1ccc(Cn2c(=O)c(C#N)c3n(c2=O)CCC3)cc1
  0.06 | 0.89
[77] COc1ccc(OCC(=O)N2CCN(C(=O)c3cccs3)CC2)cc1
  1.2 | -1.7
[78] COc1ccc(OC)c(NC(=O)CCc2nnc3ccc(NCc4ccco4)nn23)c1
  0.83 | 1.9
[79] Nc1ccc2ncccc2c1
  0.24 | -0.11
[80] O=C(O)CCC(=O)N1CCc2cc(S(=O)(=O)N3CCCCC3)ccc21
  0.8 | -0.09
[81] CCC(C)c1ccc(OCCn2ccnc2)cc1 (stereo unspecified)
  0.45 | -0.93
[82] Cc1c(Cl)cccc1NC(=O)CSC(C)c1nc2ccccc2c(=O)[nH]1 (stereo unspecified)
  2.4 | 1.3
[83] COC(=O)c1ccc(Cn2cnc3c(cnn3-c3ccc(F)cc3)c2=O)o1
  0.37 | 4.2
[84] CCOC(=O)c1ccc(NC(=O)N2CCN(S(C)(=O)=O)CC2)cc1
  1.1 | 0.08
[85] CCOc1cc(/C=C2\SC(=O)N=C2N)ccc1O
  0.51 | 3.2
[86] Cc1cc(NS(=O)(=O)c2ccc(NC(=O)CCCOc3ccccc3)cc2)no1
  1.1 | 0.05
[87] C=CCNC(=O)CC(=O)N/N=C/c1ccc(F)cc1
  0.57 | 1.6
[88] O=C(CN1C(=O)c2ccccc2C1=O)Nc1ccc(S(=O)(=O)NCC2CCCO2)cc1 (stereo unspecified)
  0.23 | -0.11
[89] COC(=O)c1sccc1S(=O)(=O)N1CCCC(N(C)CCc2ccccn2)C1 (stereo unspecified)
  0.78 | -1.1
[90] Cc1nc(-c2cnn(-c3ccccc3)c2)c2cc(C)oc2n1
  1.9 | -0.66

In a second layout: entries from further up.
[76] N#Cc1ccc(Cn2c(=O)c(C#N)c3n(c2=O)CCC3)cc1
[66] O=C(NCc1ccccc1F)c1cccc(S(=O)(=O)NCc2ccccc2)c1
[75] CCOc1cc(C(C#N)N2CCCCC2)ccc1OC (stereo unspecified)
[84] CCOC(=O)c1ccc(NC(=O)N2CCN(S(C)(=O)=O)CC2)cc1
[73] Cn1c(=O)c2c(nc(CN3CCN(C(=O)c4ccco4)CC3)n2CCCO)n(C)c1=O
[85] CCOc1cc(/C=C2\SC(=O)N=C2N)ccc1O

| assay / entry | 76 | 66 | 75 | 84 | 73 | 85 |
| --- | --- | --- | --- | --- | --- | --- |
| KCNQ2 enhance | 0.06 | 0.27 | 0.67 | 1.1 | 0.56 | 0.51 |
| KCNQ2 enhance baseline | 0.89 | -0.37 | -1.4 | 0.08 | 0.21 | 3.2 |

Pulled one by one from the list above, 2 records:
Fields: KCNQ2 enhance | KCNQ2 enhance baseline
[12] CCOc1ccccc1/C=C/c1cc(C(=O)O)c2ccccc2n1
  0.18 | -0.59
[44] Cc1ccccc1OCC(O)CN1CCN(CC(O)COc2ccccc2C)CC1 (stereo unspecified)
  1.2 | -1.3

(list continues)
Fields: KCNQ2 enhance | KCNQ2 enhance baseline
[91] O=C(c1cccc(S(=O)(=O)N2CCCCCC2)c1)N1CCN(c2ccccc2)CC1
  0.59 | -0.94
[92] CC(C)CC(CO)N1CCN(C(=O)c2ccc(Cl)cc2Cl)CCC1=O (stereo unspecified)
  2 | 0.24
[93] COc1ccccc1NC(=O)c1ccc2snnc2c1
  0.35 | -1.9
[94] COc1ccc(NC(=O)CN2C(=O)CSC2=O)cc1
  0.35 | 1.1
[95] CCOc1ccc(C2C(C#N)=C(N)Oc3nc[nH]c(=O)c32)cc1 (stereo unspecified)
  1.1 | 1.9
[96] CC(C)COc1ccc(C(=O)NC(=S)Nc2ccc(CN3CCOCC3)cc2)cc1
  0.58 | 0.99
[97] CC1CN(C(=O)CN2C(=O)NC3(CCCCCC3)C2=O)CC(C)O1 (stereo unspecified)
  0.02 | -2.1
[98] COc1ccccc1-n1cnnc1SCC(=O)Nc1cc(C)on1
  1.7 | 0.16
[99] CCCSc1nnc2n(N)c(=O)c3ccccc3n12
  0.25 | 0.43
[100] COCCNC(=O)COc1ccc(C)c(C)c1
  0.02 | 0.21
[101] COc1ccccc1NC(=O)NCc1ccccc1F
  0.35 | -0.01
[102] CC(C)(C)C(=O)Nc1nc(-c2ccccc2)ns1
  0.42 | -2.5
[103] CC(=O)CCN1C(=O)NC2(CCCc3ccccc32)C1=O (stereo unspecified)
  1.5 | 2.1
[104] COc1ccccc1CC(=O)NCCc1ccccc1
  0.46 | -1.4
[105] CCOC(=O)c1c2c3c(cccc3n(C)c1=O)C(=O)c1ccccc1-2
  0.59 | -0.37
[106] Cc1cc2oc(=O)cc(CN3CCC(C)CC3)c2c(C)c1Cl
  0.87 | 0.05
[107] COc1ccc(Cc2nnc(NC(=O)c3ccccc3)s2)cc1OC
  0.59 | -1.9
[108] Cc1ccc(C2=NCCn3c2c2ccc(C(F)(F)F)cc2[n+]3[O-])cc1
  1.1 | 0.14
[109] CCN(C(=O)COC(=O)c1c2c(nc3ccccc13)/C(=C/c1ccccc1)CC(C)C2)C1CCS(=O)(=O)C1 (stereo unspecified)
  0.24 | 1.5
